High-throughput results: PubChem, several laboratories
FGF22 binding = binders of human FGF22 protein, primary screen, FGF22 synaptogenesis inhibitor project, biophysical, thermal shift, single point | recombinant FGF22 thermal shift, SYPRO orange fluorescence; percent of sucrose octasulfate shift, DMSO zero | calls only at 9.99 µM | Fibroblast growth factor 22 (Homo sapiens), Q9HCT0 | hit rate 1.5% among 340,000;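 active means melting point raised past a set limit in the mean and every replicate; inconclusive means no clear call; three in four hits are not shown here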
UCH37 DUB inh = inhibitors of human UCH37 deubiquitinase, primary screen, biochemical, Ub-AMC cleavage, fluorescence | hit rate 0.33% among 330,000 | inhibition, % (test concentration not listed) | purified proteasome/UCH37 | Ubiquitin carboxyl-terminal hydrolase isozyme L5 (Homo sapiens), Q9Y5K5;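 active means mean of two replicates above 20%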;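 further: 0% = compound-free wells with enzyme and 100% = wells lacking proteasome; stock transfer was 100 nL into about 20 µL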
Target sequence (Q9Y5K5 whole entry, looked up): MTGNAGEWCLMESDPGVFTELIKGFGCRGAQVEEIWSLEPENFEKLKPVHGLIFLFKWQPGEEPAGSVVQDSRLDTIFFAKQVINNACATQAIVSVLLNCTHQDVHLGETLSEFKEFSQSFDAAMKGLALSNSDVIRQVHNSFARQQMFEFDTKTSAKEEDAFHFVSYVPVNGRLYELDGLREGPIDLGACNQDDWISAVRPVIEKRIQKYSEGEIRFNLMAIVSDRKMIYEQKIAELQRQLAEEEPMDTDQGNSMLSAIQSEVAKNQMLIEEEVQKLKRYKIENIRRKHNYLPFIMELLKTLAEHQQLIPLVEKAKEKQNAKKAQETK
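assay system = human UCH37 enzyme supplied as purified proteasome complex | amount = proteasome at 0.15 nM in the dispensed enzyme solution | schedule = 30 min compound-proteasome preincubation then 25 min substrate reaction, room temperature | measured by = fluorescence, ex 355 nm, em 460 nm | benchmarks = no-proteasome wells (full inhibition) and compound-free wells (no inhibition)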
Beta2AR agonist = beta2AR agonists driving receptor internalization, primary screen, cell-based, FAP fluorogen, flow cytometry; Beta-2 adrenergic receptor (Homo sapiens), P07550; hit rate 0.43% among 340,000; AID 504454, 2011; response, % (no concentration beside the values); Am2.2-beta2AR cells; reference of the scale not given here;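 active means response above a set limit, near 3 SD of response in nonfluorescent compounds, cut at about 42% in these data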;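 further: stock transfer was 100 nL into about 11 µL; a reference agonist was the positive control; negative values mostly stem from fluorescent compounds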
Target sequence (P07550 whole entry, looked up): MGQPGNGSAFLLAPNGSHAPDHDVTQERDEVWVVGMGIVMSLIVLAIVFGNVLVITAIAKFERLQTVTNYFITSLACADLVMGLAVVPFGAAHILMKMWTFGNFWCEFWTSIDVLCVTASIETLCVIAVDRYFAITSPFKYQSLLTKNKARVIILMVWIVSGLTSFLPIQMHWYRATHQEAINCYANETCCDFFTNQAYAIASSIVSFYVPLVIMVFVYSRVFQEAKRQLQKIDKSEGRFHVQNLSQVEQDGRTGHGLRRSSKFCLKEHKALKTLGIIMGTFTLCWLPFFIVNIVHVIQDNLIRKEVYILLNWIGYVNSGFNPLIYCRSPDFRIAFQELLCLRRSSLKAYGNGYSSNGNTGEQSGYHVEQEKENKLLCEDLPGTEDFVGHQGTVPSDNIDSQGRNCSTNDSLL
ALR H2O2 inh = inhibitors of human ALR sulfhydryl oxidase, primary screen, biochemical, H2O2 detection, HRP-luminol luminescence, single point | purified ALR, DTT oxidation | FAD-linked sulfhydryl oxidase ALR (Homo sapiens), P55789 | AID 485317, 2010 | hit rate 3.8% among 290,000 | inhibition, % (no concentration beside the values);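 active means mean and each replicate at 75% or more; inconclusive means only one of the two met; inactive means neither met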;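 further: stock transfer was 7.5 nL into about 7.5 µL; 0% = neutral wells and 100% = wells with inactivated enzyme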
Target sequence (P55789 whole entry, looked up): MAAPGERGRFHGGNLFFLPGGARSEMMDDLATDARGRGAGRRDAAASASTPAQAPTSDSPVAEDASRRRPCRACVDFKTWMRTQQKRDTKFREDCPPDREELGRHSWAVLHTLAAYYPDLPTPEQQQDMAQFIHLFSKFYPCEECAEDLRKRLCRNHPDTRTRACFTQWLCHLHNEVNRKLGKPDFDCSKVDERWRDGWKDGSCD
Ecoli growth = E. coli growth inhibition, primary screen, OD600. OD600 absorbance (test concentration not listed). Escherichia coli growth, 23 h; active compounds read low. hit rate 0.21% among 330,000;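 active means OD600 absorbance below the run mean of sample wells minus 3.6 SD, in any replicate, cut at about 0.56 in these data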;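 further: stock transfer was 300 nL into about 60 µL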
Ecoli rRNA inh = reduced GFP signal of wild-type E. coli, primary screen, bacterial rRNA inhibitor project, GFP/RFP fluorescence, OD600, single point; E. coli WT GFP vs humanized-ribosome RFP mutants, 24 h; active compounds read low; DMSO median 0, no signal -100; GFP signal change (wild-type ribosome), % (no concentration beside the values); hit rate 1.6% among 350,000;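 active means significant combined selectivity score with lowered wild-type GFP, culture density cut under 30%, mutant RFP and density less affected; inactive means any of these conditions unmet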; further: one replicate is shown; some compounds called inactive have numbers as strong as hits
HNF4A DNA FP = change in binding of human HNF4A to DNA, primary screen, biochemical, fluorescence polarization, FITC-DNA | Hepatocyte nuclear factor 4-alpha (Homo sapiens), P41235 | 1 h | activity change, % at 10 µM | hit rate 0.3% among 360,000; in the data active means activity change above about 30%, passing the limit was not always enough;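 further: controls were the assay level and a saturating level of protein; the project sought stronger binding though the title names inhibitors; some compounds called inactive have numbers as strong as hits; positive values seem to mean higher polarization but the record does not say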
Ecoli rRNA inh OD600 = second read-out of Ecoli rRNA inh, no call of its own (marks repeat the call); OD600 change, %; measured here: OD600 growth;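 optical density of the mix in the first replicate; 0 = DMSO median and -100 = no signal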
Ecoli rRNA inh RFP = also measured in Ecoli rRNA inh; calls as there; RFP signal change, %; measured here: RFP humanized mutant strains;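 first replicate; 0 = DMSO median and -100 = no signal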
* marks the source's active call; other numbers are inactive results; i = inactive; ? = inconclusive; / = no result given.

Fields – FGF22 binding, UCH37 DUB inh, Beta2AR agonist, ALR H2O2 inh, Ecoli growth, Ecoli rRNA inh, Ecoli rRNA inh OD600, Ecoli rRNA inh RFP, HNF4A DNA FP
1	O=C(N/N=C/c1c(F)c(F)c(F)c(F)c1F)c1ccc(Cn2cc(Br)cn2)o1
 : i, /, 13, 5, /, -3, -6, -1.8, -0.8
2	CC[C@@]12C(=O)N(c3cccc(Br)c3)C(=O)N1[C@H](c1cccc(C)c1)[C@@H]1C(=O)N(Cc3ccccc3)C(=O)[C@@H]12
 : /, 1.2, 4, /, /, /, /, /, -4.2
3	COc1ccc(C)cc1NC(=O)CN1c2cccc3cccc(c23)S1(=O)=O
 : i, -40, 1, /, 0.72, 9, 15, 9.8, 4.7
4	CC1CCN(C(=O)CSc2nc3c(cnn3-c3ccc(Cl)cc3)c(=O)[nH]2)CC1
 : i, 0.9, 5, /, 0.73, 1, 4, 2.8, 0.9
5	Cc1cccc(C(=O)NC(=S)Nc2cccc3nc(C)ccc23)c1
 : i, 4.5, -5, -15, 0.68, -3, -6, 4.7, -2.5
6	Cc1ccc(S(=O)(=O)NCCC(=O)NC(C)c2ccccc2)cc1 (stereo unspecified)
 : i, 1.5, -3, 3, 0.69, 6, 0, 2.5, -0.2
7	O=S(=O)(CC(O)COc1ccccc1Cl)c1ccccc1 (stereo unspecified)
 : /, 3.4, -9, -9, 0.7, /, /, /, -1.4
8	COC(=O)c1c(C(=O)OC)c(-c2ccc(OC)cc2)n2c1CS(=O)C2 (stereo unspecified)
 : i, -0.5, 3, -8, 0.66, 10, 17, -0.3, 0.9
9	CCC(C)NC(=O)CSc1nc2ccccc2c(=O)n1CCCN1CCCCC1 (stereo unspecified)
 : i, 1.5, 1, -1, 0.67, 14, 7, -1.3, 0.1
10	COc1cccc(CN2CC(C(=O)N(C)Cc3ccc(C)cc3)CCC2=O)c1 (stereo unspecified)
 : i, 2.0, 0, -6, 0.68, -4, 2, -1.0, -2.5
11	CCCNC(=O)c1ccc(SC)cc1OC
 : /, 2.1, 8, /, 0.67, /, /, /, -1.8
12	S=c1[nH]nc(C2CC2)n1Cc1ccccc1
 : i, 3.7, 2, ?, 0.74, -24, -41, -14, 0.1
13	COc1cc(OC)c(NC(=O)c2sc3ncn(CC(=O)N4CCOCC4)c(=O)c3c2C)cc1Cl
 : i, -9.0, -5, -12, 0.69, 6, 15, -0.3, 2.1
14	CCN(CC)CCn1c(-c2ccccc2)nc(=S)c2c1CC(C)(C)OC2
 : /, 15, -2, 8, 0.67, /, /, /, 0.4
15	C=CCNC(=S)NNC(=O)c1cc(O)ccc1O
 : i, -12, 1, 99*, 0.65, 16, 16, 5.8, 2.0
16	O=C(c1ccc(Cl)cc1)N1CCN=C1c1ccccc1
 : i, -2.5, -2, 1, 0.66, 2, 3, -5.8, -1.0
17	COc1cc(OC)cc(C(=O)N2CCN(S(=O)(=O)c3ccc4c(c3)OCCO4)CC2)c1
 : i, /, /, /, /, -3, -13, -1.5, -4.1
18	CCNC(=S)/N=C(/Nc1ccc(OC)cc1)Nc1nc(C)cc(C)n1
 : i, 6.5, -14, -8, 0.71, 3, 5, -3.3, -0.1
19	CC(C)=CC(O)C/C(C)=C/COc1ccc2ccc(=O)oc2c1 (stereo unspecified)
 : i, -115, -5, 6, 0.76, /, /, /, 1.0
20	CCOC(=O)c1ccc(NC(=S)N2CCC(O)CC2)cc1
 : i, 0.6, 3, 0, 0.7, -2, 7, 8.8, 0.1

Later entries:
Fields – FGF22 binding, UCH37 DUB inh, Beta2AR agonist, ALR H2O2 inh, Ecoli growth, Ecoli rRNA inh, Ecoli rRNA inh OD600, Ecoli rRNA inh RFP, HNF4A DNA FP
21	O=C(NC1=NCCS1)c1cccc2ccccc12
 : i, 0.8, -5, -3, 0.64, 13, 6, 0.5, 0.6
22	Cc1ccccc1NC(=S)NCc1cccn1C
 : i, 4.0, 0, 11, 0.68, /, /, /, -4.7
23	CN1C(=O)c2ccc(C(=O)NCc3ccccc3)cc2C1=O
 : /, 1.9, -7, 17, 0.72, /, /, /, 2.0
24	CCOC(=O)[C@H]1[C@H]2COc3ccc(C)cc3[C@@H]2N2C(=O)CN(Cc3ccco3)C(=O)[C@@]12C
 : i, -0.7, -8, 4, /, 2, 4, -5.8, 0.9
25	CCOC(=O)c1ccc(-n2c(C)nc3c(cnn3-c3ccc(Cl)cc3)c2=O)cc1
 : /, 3.4, -4, /, 0.69, /, /, /, -0.4
26	COc1ccc(N2CC(C(=O)Nc3nnc(SCC(=O)NCc4ccco4)s3)CC2=O)cc1 (stereo unspecified)
 : i, 3.0, 1, -1, 0.73, 1, 9, 2.2, -8.6
27	COc1cc(/C=C2\SC(=S)N(NS(=O)(=O)c3ccccc3)C2=O)cc(OC)c1OC
 : /, 8.2, 5, /, 0.65, -5, -7, 6.6, 4.3
28	O=C(O)CSc1cc(C(=O)c2ccccc2O)cn2c(=O)c3c4c(sc3nc12)CCCC4
 : i, 11, 4, /, 0.73, -7, -6, 1.2, -31
29	CNC(=S)N1CCC(c2nc3ccccc3s2)CC1
 : i, 1.1, 0, ?, 0.65, -12, -18, -3.8, 2.2
30	COCCOC(=O)C1=C(N)OC2=C(C(=O)CCC2)C1c1cccnc1 (stereo unspecified)
 : /, -2.2, -1, 0, 0.72, /, /, /, 1.8
31	COCCn1nnnc1CN1CCC(NC(=O)c2ccc(Br)cc2)CC1
 : /, 2.8, -9, -28, 0.71, /, /, /, -1.5
32	Cc1cc(NC(=O)CSc2nnc3c(C)cc4c(C)ccc(C)c4n23)no1
 : /, -0.7, -6, -1, 0.71, /, /, /, -2.1
33	Cc1ccc(C2CC2C(=O)NNC(=S)Nc2cccc(Cl)c2)cc1 (stereo unspecified)
 : /, 4.8, 1, 61, 0.68, /, /, /, 4.2
34	O=c1ccc(OCCOc2ccccc2)nn1-c1ccccc1
 : i, 2.5, 4, 1, 0.69, 0, 3, -4.1, -2.7
35	Cc1ccc(-n2c(C)cc(C(=O)COC(=O)c3ccc[nH]c3=O)c2C)cc1
 : /, 6.2, 2, -9, 0.71, /, /, /, -2.6
36	O=C1c2ccsc2SCCN1Cc1c(F)cccc1Cl
 : i, 2.3, 3, 0, 0.61, -11, -9, -1.2, 0.4
37	CCN1C(=O)CC(C(=O)Nc2ccc(F)cc2)SC1=Nc1ccc2c(c1)OCO2 (stereo unspecified)
 : /, -1.2, -2, -20, 0.76, /, /, /, 1.0
38	CCC(=O)Nc1cccc(C(=O)Nc2nccs2)c1
 : i, 1.1, -4, -19, 0.67, 5, 10, 2.1, 2.2
39	OC(c1ccccc1)(c1ccc(F)cc1)C(c1ccccc1)N1CCOCC1 (stereo unspecified)
 : /, 5.7, 15, -2, 0.72, -18, -6, 0.1, -0.7
40	O=S(=O)(c1ccccc1)N1CCC(O)(CN2CCN(c3ccccc3)CC2)CC1
 : i, 3.9, -7, 25, 0.67, 10, 1, 1.2, -0.4

11 structures from above, sorted by heavy-atom count, smallest number first.
Fields – FGF22 binding, UCH37 DUB inh, Beta2AR agonist, ALR H2O2 inh, Ecoli growth, Ecoli rRNA inh, Ecoli rRNA inh OD600, Ecoli rRNA inh RFP, HNF4A DNA FP
22	Cc1ccccc1NC(=S)NCc1cccn1C
 : i, 4.0, 0, 11, 0.68, /, /, /, -4.7
23	CN1C(=O)c2ccc(C(=O)NCc3ccccc3)cc2C1=O
 : /, 1.9, -7, 17, 0.72, /, /, /, 2.0
34	O=c1ccc(OCCOc2ccccc2)nn1-c1ccccc1
 : i, 2.5, 4, 1, 0.69, 0, 3, -4.1, -2.7
33	Cc1ccc(C2CC2C(=O)NNC(=S)Nc2cccc(Cl)c2)cc1 (stereo unspecified)
 : /, 4.8, 1, 61, 0.68, /, /, /, 4.2
30	COCCOC(=O)C1=C(N)OC2=C(C(=O)CCC2)C1c1cccnc1 (stereo unspecified)
 : /, -2.2, -1, 0, 0.72, /, /, /, 1.8
31	COCCn1nnnc1CN1CCC(NC(=O)c2ccc(Br)cc2)CC1
 : /, 2.8, -9, -28, 0.71, /, /, /, -1.5
35	Cc1ccc(-n2c(C)cc(C(=O)COC(=O)c3ccc[nH]c3=O)c2C)cc1
 : /, 6.2, 2, -9, 0.71, /, /, /, -2.6
39	OC(c1ccccc1)(c1ccc(F)cc1)C(c1ccccc1)N1CCOCC1 (stereo unspecified)
 : /, 5.7, 15, -2, 0.72, -18, -6, 0.1, -0.7
37	CCN1C(=O)CC(C(=O)Nc2ccc(F)cc2)SC1=Nc1ccc2c(c1)OCO2 (stereo unspecified)
 : /, -1.2, -2, -20, 0.76, /, /, /, 1.0
24	CCOC(=O)[C@H]1[C@H]2COc3ccc(C)cc3[C@@H]2N2C(=O)CN(Cc3ccco3)C(=O)[C@@]12C
 : i, -0.7, -8, 4, /, 2, 4, -5.8, 0.9
26	COc1ccc(N2CC(C(=O)Nc3nnc(SCC(=O)NCc4ccco4)s3)CC2=O)cc1 (stereo unspecified)
 : i, 3.0, 1, -1, 0.73, 1, 9, 2.2, -8.6

(continued)
Fields – FGF22 binding, UCH37 DUB inh, Beta2AR agonist, ALR H2O2 inh, Ecoli growth, Ecoli rRNA inh, Ecoli rRNA inh OD600, Ecoli rRNA inh RFP, HNF4A DNA FP
41	Cc1ccc(S(=O)(=O)N2[C@@H](c3ccc(Cl)c(Cl)c3)C(C(=O)O)=C[C@H]2C(C)(C)C)cc1
 : /, 4.9, 8, /, 0.69, /, /, /, -0.4
42	COc1ccc(NC(=O)CN(C)C2CCCCC2)c([N+](=O)[O-])c1
 : i, 3.7, -4, -3, 0.7, /, /, /, 1.1
43	Cn1cc(/C=C(\C#N)C(=O)Nc2ncc(Cc3ccc(Cl)cc3)s2)c2ccccc21
 : /, 0.6, -1, -14, 0.71, /, /, /, 2.1
44	CN(C)c1ccc(C=NNC(=O)c2cccnc2)cc1
 : i, /, -8, /, /, 10, 18, -2.0, 4.2
45	O=C(c1ccc(F)cc1)c1cn[nH]c1-c1ccccc1O
 : /, -1.4, -5, 19, 0.74, /, /, /, -0.4
46	Cc1cc(NC(=O)CSCC(=O)Nc2nc3ccccc3[nH]2)no1
 : i, 0.7, 4, -23, 0.7, 16, 16, 0.6, 4.3
47	COc1ccccc1CN(C)C(=O)CN1CCN(CC(=O)Nc2ccccc2Cl)CC1
 : i, 3.6, -7, -40, 0.7, -6, -18, 7.3, 4.0
48	Cc1ccc(CC(=O)N(C)CC(=O)N(CC(C)C)c2c(N)n(CC(C)C)c(=O)[nH]c2=O)cc1C
 : i, 5.0, 0, -5, 0.71, 8, 7, 0.0, 2.3

An excerpt, so the mix of outcomes need not match the whole.
